PINK1 modulator: modulators of PINK1 expression. PINK1 immunofluorescence, high-content cytometry, 24 h. Potency, µM (doses to about 76.6 µM), for inactives: top-dose activation (PINK1 increase), actives largely listed as activators. hit rate 0.2% among 410,000. AID 624263; active = well fitted activation curve with a large enough effect; inconclusive = small, poorly fitted or top-dose-only effect; inactive = flat fitted curve, though single readings scatter; cell line not stated here;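 note: % of control where 0% means no effect; nearly all actives have a fitted effect of over 65% in size; a mitochondrial uncoupler was the plate control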
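Measures PINK1 amount and localization on or inside mitochondria by immunofluorescence. Stable cells get compounds at 5 concentrations for 24 hours before fixation and staining; CCCP controls included.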
* marks the source's active call; other numbers are inactive results; u = inconclusive; & = joins results of further samples. Potency is the fitted concentration of half-maximal effect.

| smiles | PINK1 modulator |
| --- | --- |
| COc1ccc(C(=O)N2CCC3(CCCN(C(c4ccccc4)c4ccccc4)C3)CC2)cc1 | 4.1% |
| COc1ccc(C(=O)N2CCC[C@@]3(CCN(c4ccccn4)C3)C2)cc1 | 0.2% |
| CN(C)c1ncc2nc(CCc3ccccc3)c(=O)n(-c3ccccc3)c2n1 | 2.6% |
| COc1ccccc1C(=O)N[C@@H]1c2ccccc2C2(CCN(Cc3ccc4c(c3)OCO4)CC2)[C@H]1O | -0.4% |
| FC(F)(F)c1ccccc1-c1cncnc1NCc1cccnc1 | -0.3% |
| COCc1c(C(=O)N2CCN(C3CCCC3)CC2)cnn1-c1nccc(-c2cc(C)sc2C)n1 | -0.2% |
| CC(=O)c1ccc(F)c(-c2cc(C)cc3c2OC(CNC(=O)Cc2c[nH]c4ccccc24)C3)c1 (stereo not drawn) | 0.0% |
| O=C(c1cc(C(F)(F)F)cc(C(F)(F)F)c1)N1CCC[C@@]2(CCN(Cc3ccccc3)C2)C1 | -0.9% |
| COc1cccc(-c2nc3cc4c(cc3cc2CN(C(=O)c2cccs2)C2CC2)CCC4)c1OC | 6.3% |
| CN(Cc1ccco1)c1ncnc2ccc(-c3cccc(NS(C)(=O)=O)c3)cc12 | -0.5% |
| COC(=O)c1ccccc1C(=O)NCC1Cc2cc(-c3nc(C)cnc3C)ccc2O1 (stereo not drawn) | 0.4% |
| CN(C)c1ccc(-c2cc(-n3ccnc3)ncn2)cc1 | 1.0% |
| CCC1CN(CCNC(=O)c2cccc(C(=O)OC)c2)Cc2cc(OC)ccc2O1 (stereo not drawn) | -0.3% |
| O=C(NCC1Cc2cccc(-c3cnccn3)c2O1)c1ccc(F)c(Cl)c1 (stereo not drawn) | 0.6% |
| COc1ccccc1C(=O)N1CCOc2ccc(C(C)(O)CCn3cccn3)cc2C1 (stereo not drawn) | -0.2% |
| CN(C)c1ncc2nc(-c3ccccc3)c(=O)n(C3CC3)c2n1 | -1.0% |
| COc1ccc(C(=O)N2CCC3(CC2)CN(C(=O)NC(C)C)C3)cc1 | 0.8% |
| COc1ccc(-c2cc(C)cc3c2OC(CNC(=O)/C=C/c2ccncc2)C3)nn1 (stereo not drawn) | 1.0% |
| CC(C)NC(=O)N1CCCC2(CCN(C(=O)c3cccc(F)c3)CC2)C1 | 1.0% |
| OC(c1ccc2c(c1)CN(Cc1ccc3nsnc3c1)CCO2)C1CCCCC1 (stereo not drawn) | -0.3% |
| O=C(c1cnccn1)N1CCC2(CC1)CN(c1ccccn1)C2 | 1.4% |
| O=C(c1csnn1)N1CCC2(CCN(Cc3cc(C(F)(F)F)cc(C(F)(F)F)c3)CC2)CC1 | 0.7% |
| CN(Cc1ccco1)C(=O)c1cc(NC(=O)C2CCC2)c2c(c1)nc(-c1ccncc1)n2C | 0.3% |
| COc1cccc(Cn2c(=O)c(-c3ccc(F)cc3)nc3cnc(N4CCNCC4)nc32)c1 | 2.7% |
| CS(=O)(=O)N1CCC[C@@]2(CCN(C(c3ccccc3)c3ccccc3)C2)C1 | 2.0% |
| CCCN1CCN(C(=O)c2cnn(-c3ncc4c(n3)-c3ccccc3CCC4)c2COC)CC1 | 2.1% |
| CN1CCN(c2ncc3nc(-c4ccc(Cl)cc4)c(=O)n(C4CC4)c3n2)CC1 | 0.2% |
| O=C(Oc1ccccc1)N1CCC2(CC1)CN(c1ncccn1)C2 | -0.3% |
| O=C(Nc1cccc(F)c1)N1CC[C@@]2(CCCN(C(=O)c3cccc(F)c3)C2)C1 | 0.3% |
| Cc1ccc(C(=O)Nc2cnn(-c3ccc(C(=O)N(C)Cc4n[nH]c5c4CCCC5)cc3)c2)c(C)c1 | -1.1% |
| CC(=O)Nc1ccccc1-c1nc(CNC(=O)c2cccc(-n3cccn3)c2)c(C)o1 | 0.1% |
| Cc1nc2cc(NC(=O)[C@@H]3C[C@@H](Sc4ccccn4)CN3Cc3ccccc3C)ccc2s1 | 0.4% |
| Cc1cc(Cl)ccc1OCC(=O)N1CCOc2ccc(CN3C[C@@H](C)O[C@@H](C)C3)cc2C1 | -0.9% |
| COC(=O)[C@@H]1CCCN1Cc1ccc2c(c1)CN(Cc1cccc(Cl)c1)CCO2 | -0.3% |
| CC(C)NC(=O)N1CC[C@@]2(CCCN(C(=O)c3ccco3)C2)C1 | -0.7% |
| COc1ccccc1-c1nc(-c2ccc(C(=O)O)cc2)no1 | 0.9% |
| CC(NC(=O)c1ccco1)c1nnc2n1CCN(Cc1ccc(N(C)C)cc1)CC2 (stereo not drawn) | 0.7% |
| Cc1ccsc1C1Cc2c(C(=O)NCc3cccnc3)c(=O)cc(C)n2-c2ccccc2S1 (stereo not drawn) | -0.6% |
| CC(C)c1nc(C(=O)N2CCOc3ccc(CN4CCN(c5ccccn5)CC4)cc3C2)cs1 | -0.9% |
| O=C(NCCc1nnc2n1CCN(Cc1c(F)cccc1F)CC2)c1ccc(F)cc1 | -0.3% |
| Cc1cnc(C)c(-c2cccc3c2OC(CNC(=O)c2cc(C)on2)C3)n1 (stereo not drawn) | -0.5% |
| O=C(NCc1ccon1)c1ccc(-c2csc3ccccc23)nc1N1CCC(N2CCCC(CO)C2)CC1 (stereo not drawn) | 3.3% |
| O=C(NCC1Cc2cccc(-c3ccccn3)c2O1)c1cnn2cccnc12 (stereo not drawn) | -0.4% |
| Nc1nc2c(ncn2C2OC(CO)CC2O)c(=O)[nH]1 (stereo not drawn) | -1.6% |
| CCn1nc(C)cc1C(=O)N1CCC2(CC1)c1ccccc1[C@@H](NC(=O)c1cccnc1)[C@@H]2O | 0.9% |
| CC(=O)N1CCC2(CC1)CN(c1ccncc1)C2 | 0.6% |
| COc1ccc(-c2nc3cnc(N4CCNCC4)nc3n(-c3ccccc3)c2=O)cc1 | 3.2% |
| Cc1cccc(CNc2ccnc(-c3ccccc3Cl)n2)c1 | -0.9% |

Ordered by value in PINK1 modulator (rising): 3 of the compounds above.
structure,PINK1 modulator
Cc1cnc(C)c(-c2cccc3c2OC(CNC(=O)c2cc(C)on2)C3)n1 (stereo not drawn),-0.5%
CC(NC(=O)c1ccco1)c1nnc2n1CCN(Cc1ccc(N(C)C)cc1)CC2 (stereo not drawn),0.7%
CCn1nc(C)cc1C(=O)N1CCC2(CC1)c1ccccc1[C@@H](NC(=O)c1cccnc1)[C@@H]2O,0.9%

(further entries)
| smiles | PINK1 modulator |
| --- | --- |
| COCC1CCCN(Cc2ccc3c(c2)CN(C(=O)c2ccnn2C)CCO3)C1 (stereo not drawn) | 0.1% |
| CC(C)NC(=O)N1CC[C@@]2(CCCN(C(=O)c3cc(C(F)(F)F)cc(C(F)(F)F)c3)C2)C1 | -0.6% |
| O=C(CCn1cncn1)NCC1Cc2cc(-c3ccsc3)cc(Cl)c2O1 (stereo not drawn) | -0.6% |
| c1ccc(-c2ccc(N3CCCC4(CCNCC4)C3)cc2)cc1 | -1.4% |
| Cc1ccc(CNc2ncnc3ccc(-c4ccc(CO)o4)cc23)o1 | 3.7% |
| Cc1cnc(CNc2ncnc3ccc(-c4ccccc4C#N)cc23)cn1 | -0.8% |
| COC(=O)c1c(C)cc(OC)cc1O | -0.3% |
| COC(=O)N1CCC2(CCCN(Cc3ccc(C#N)cc3)C2)CC1 | -0.3% |
| CN1C(=O)CC(CC(=O)N2CCCCC2CCO)(c2cccc(F)c2)C1=O (stereo not drawn) | -0.3% |
| Cc1nn(-c2ccccc2)c(C)c1CC(=O)NCC1Cc2cc(-c3cncnc3)ccc2O1 (stereo not drawn) | -0.3% |
| COC(=O)c1cc(CNC(=O)c2cccc(F)c2)cc(NC(=O)c2ccccc2OC)c1 | -0.9% |
| COc1ccc(CCNc2ncnc3sc(C(=O)N(C)C)c(C)c23)cc1OC | -0.4% |
| COc1ccccc1-c1ccc2ncnc(N3CCN(C)CC3)c2c1 | 1.6% |
| COc1ccc(CN2CCC3(CC2)c2ccccc2[C@@H](NC(=O)c2ccsc2)[C@@H]3OC)cc1O | 0.3% |
| Cc1cccc2cc(CNCCCN3CCCC3=O)c(N3CCN4CCCC4C3)nc12 (stereo not drawn) | 1.0% |
| O=C(NCCc1ccccn1)C1CC12CCN(C(=O)c1cccc(C(F)(F)F)c1)CC2 (stereo not drawn) | 0.1% |
| COc1ccccc1-c1nc(NCc2cnc(C)cn2)c2ccccc2n1 | 1.2% |
| Cc1cc(F)cc(C)c1Cn1cnc2c(cnn2C(C)(C)C)c1=O | 2.2% |
| O=C(Oc1ccccc1)N1CCC2(CCCN(c3ccncc3)C2)CC1 | 0.3% |
| Clc1ccccc1-c1cncnc1NCc1cccs1 | -0.4% |
| O=C(c1ccc2c(c1)OCCO2)N1CCN(S(=O)(=O)c2c(F)cccc2F)CC1 | 1.5% |
| COc1cc(OC)cc(C(=O)N2CCCC(n3cc(C(=O)NCC(C)C)nn3)C2)c1 (stereo not drawn) | -0.3% |
| CCNc1ncc2nc(-c3cccc(C#N)c3)c(=O)n(Cc3cccc(OC)c3)c2n1 | u |
| COc1ccc(OC)c(CN2CCCC(c3nc(C)ncc3-c3ccc(F)cc3)C2)c1 (stereo not drawn) | -0.2% |
| COc1ccc(NC(=O)N2CCC3(CC2)CCN(C(=O)c2cc(C(F)(F)F)cc(C(F)(F)F)c2)CC3)cc1 | -0.4% |
| COc1cc(C)c(CN2CCC3(CCC(CNC(=O)c4ccnn4C)O3)CC2)cc1C (stereo not drawn) | 0.2% |
| CN(C)c1ccc(-c2cc(N(C)Cc3ccco3)ncn2)cc1 | 1.3% |
| CC(=O)Oc1cc(OC(C)=O)c2c(c1)OC(c1ccc(OC(C)=O)c(OC(C)=O)c1)C(OC(C)=O)C2 (stereo not drawn) | 0.9%&5.6% |
| COCCn1c(=O)c(-c2ccccc2)nc2cnc(N(C)C)nc21 | 0.8% |
| Cc1cnc(CNc2cc(-c3ccccc3C(F)(F)F)ncn2)cn1 | -0.4% |
| O=C1CCCC2=C1C1(CCCC1)N=C(Nc1nc3ccccc3o1)N2 | 4.4% |
| COC(=O)/C=C/C(C)=C/C=C/C(C)=C/C=C/C=C(C)/C=C/C=C(C)/C=C/C(=O)O | 1.6% |
| O=C(c1cc(C(F)(F)F)cc(C(F)(F)F)c1)N1CCC[C@@]2(CCN(c3ccncc3)C2)C1 | -0.6% |
| COc1ccc(C(=O)NCc2nc(-c3ccccc3NC(=O)c3cc(C)oc3C)oc2C)cc1F | 1.7% |
| CCC(CCC(C)C1CCC2C3CCC4CC(O)CC[C@@]4(C)C3CC[C@@]12C)C(C)C (stereo partly drawn) | 0.1% |
| CCC1CN(CC(=O)NC(C)c2c(C)nn(C)c2C)Cc2cc(OC)ccc2O1 (stereo not drawn) | -0.5% |
| Cn1cccc1C(=O)N1CCC2(CC1)CN(C(=O)Nc1ccccc1)C2 | -1.0% |
| O=C(NCCN1Cc2ccccc2OC(c2ccccc2F)C1)c1ccco1 (stereo not drawn) | -0.7% |
| COc1ccc(CNc2nc(-c3ccoc3)nc3ccccc23)c(OC)c1 | 3.9% |
| O=C(c1csnn1)N1CCC2(CC1)CCN(c1ncccn1)CC2 | 0.1% |
| CC(C(=O)O)C1CCC2C3CC=C4CC(O)CC[C@@]4(C)C3CC[C@]12C (stereo partly drawn) | 1.6% |
| Cc1ccc(C(=O)NCCc2nnc3n2CCN(Cc2cc(C)cc(C)c2)CC3)cc1 | -0.7% |
| COc1cc(O)c(C)c(O)c1 | 0.4% |
| Cn1c(SCC2CCCO2)nnc1C1CCN(Cc2ccco2)CC1 (stereo not drawn) | -0.5% |
| CNC(=O)Oc1ccc2c(c1)[C@@]1(C)CCN(C)C1N2C (stereo partly drawn) | 0.5% |
| O=C(c1ccncc1)N1CCC[C@@]2(CCN(Cc3ccccc3)C2)C1 | -0.8% |
| Cc1ccc2c(CC(=O)N3CCOc4ccc(CN5CCOCC5)cc4C3)cc(=O)oc2c1 | -0.4% |
| Cc1noc(C)c1CC(=O)N1CCOc2c(cc(-c3nc4ccccc4s3)cc2OC2CCOC2)C1 (stereo not drawn) | 0.1% |

Structures above that have two or more sulfur atoms:
| smiles | PINK1 modulator |
| --- | --- |
| Cc1nc2cc(NC(=O)[C@@H]3C[C@@H](Sc4ccccn4)CN3Cc3ccccc3C)ccc2s1 | 0.4% |
| Cc1ccsc1C1Cc2c(C(=O)NCc3cccnc3)c(=O)cc(C)n2-c2ccccc2S1 (stereo not drawn) | -0.6% |

Additional entries:
| smiles | PINK1 modulator |
| --- | --- |
| COC(=O)Oc1ccccc1C(=O)O | 0.8% |
| O=C(c1cnn(-c2nccc(-c3ccco3)n2)c1C1CC1)N1CCCCC1c1cccnc1 (stereo not drawn) | -0.2% |
| CCNc1ncc2nc(-c3cc(F)cc(F)c3)c(=O)n(CCc3ccccc3)c2n1 | u |
| C[C@@H]1CN(Cc2ccc3c(c2)CN(Cc2cccc(O)c2)CCO3)C[C@H](C)O1 | 0.3% |
| Cc1ccn(CCC(=O)N2CCOc3ccc(C(O)C4CCCCC4)cc3C2)n1 (stereo not drawn) | 1.1% |
| Cn1c(=O)c(-c2cccs2)nc2cnc(N3CCOCC3)nc21 | 3.9% |
| OCC(O)C(O)[C@H](O[C@H]1OC(CO)C(O)C(O)C1O)[C@H](O)CO (stereo partly drawn) | -0.2% |
| N#Cc1ccccc1-c1ccc2ncnc(NC3CC3)c2c1 | -0.3% |
| COc1cccc(Nc2ncc3nc(C)c(=O)n(CCc4ccccc4)c3n2)c1 | 3.2% |
| CC(C)CN1CCCC2(CCN(C(=O)c3cnccn3)CC2)C1 | -0.9% |
| O=c1c(CCc2ccccc2)nc2cnc(N3CCOCC3)nc2n1-c1ccccc1 | 4.8% |
| O=S(=O)(c1cccc(Br)c1)N1CCN(S(=O)(=O)c2ccc3c(c2)OCCO3)CC1 | 4.1% |
| O=C(c1ccc(N2CCC(NCCCn3ncc4ccccc43)CC2)cc1)N1CCOCC1 | -0.2% |
| COc1ccccc1CCn1c(=O)c(-c2cccs2)nc2cncnc21 | 4.6% |

This is a subset, so the mix of outcomes need not match the whole.
